From PubChem
Vaccinia inh: blocks a specific stage of Vaccinia orthopoxvirus infection. Vaccinia-infected cells, mCherry/Venus stage reporter fluorescence; active compounds read low; some inactives read as strong as hits. activity change (mCherry), % (concentration not given with the values). actives 0.01% (n = 89,000);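 active means mCherry past -33% and 40 or more points under the early reporter, replicates agreeing; inconclusive means past -33% without that gap or agreement; tested in A549 cells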;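 further: scaled between vehicle wells and reference inhibitor wells; 23 nL library stock went into each well; one replicate is shown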
Vaccinia inh Venus: also measured in Vaccinia inh; calls as there; activity change (Venus), %; measured here: Venus reporter, other viral stage;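 negative = less Venus signal; first of two replicates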
* = called active by the depositor; u = inconclusive; x = no result given; & = joins results of further samples. An excerpt; the hit share may differ from the screen's.

SMILES	Vaccinia inh	Vaccinia inh Venus
C[C@@H]1CN([C@@H](C)CO)C(=O)Cc2cc(NC(=O)Nc3ccc4c(c3)OCO4)ccc2O[C@H]1CN(C)Cc1ccc(-c2ccccc2)cc1	7	-5
Cc1noc(C)c1NC(=O)NCC[C@H]1CC[C@@H](NC(=O)c2ccc(F)cc2)[C@@H](CO)O1	11	6
C/C=C/c1cnc2c(c1)C(=O)N([C@H](C)CO)C[C@H](C)[C@H](CN(C)Cc1ccncc1)O2	29	17
CCCNC(=O)N1C[C@H]2[C@@H](c3ccccc31)[C@@H](CO)N2C(=O)C1CCOCC1	9	14
Cc1ccc(S(=O)(=O)Nc2cccc3c2O[C@@H](CN(C)Cc2ccc(C(=O)O)cc2)[C@@H](C)CN([C@H](C)CO)C3=O)cc1	13	10
COc1ccccc1-c1ccc2c(c1)O[C@@H](CN(C)C(=O)c1ccccc1)[C@@H](C)CN([C@@H](C)CO)S2(=O)=O	-13	-19
C[C@H](CO)N1C[C@H](C)[C@H](CN(C)Cc2ccc(Cl)c(Cl)c2)OCCCC[C@H](C)Oc2ccc(NC(=O)c3ccccc3)cc2C1=O	u	x
C[C@@H]1CN([C@@H](C)CO)C(=O)c2cc(NC(=O)CCCN(C)C)ccc2O[C@H]1CN(C)CC1CCCCC1	5	2
COc1ccc(NC(=O)Nc2ccc3c(c2)C(=O)N([C@@H](C)CO)C[C@H](C)[C@@H](CN(C)C(=O)Nc2ccccc2)O3)cc1	2	0
CCC(=O)N1[C@H](CN(C)C(C)=O)[C@@H](c2ccc(C3=CCCC3)cc2)[C@@H]1CO	6	4
COc1cccc(-c2ccc3c(c2)O[C@H](CN(C)Cc2cccnc2)[C@H](C)CN([C@@H](C)CO)S3(=O)=O)c1	-28	-21
Cc1ccc(S(=O)(=O)Nc2ccc3c(c2)CC(=O)N([C@H](C)CO)C[C@H](C)[C@@H](CN(C)Cc2ccc(Cl)c(Cl)c2)O3)cc1	-14	-14
CN(C)C(=O)[C@H]1[C@H](CO)[C@H]2Cn3c(ccc(-c4ccncc4)c3=O)[C@@H]1N2C(=O)NC1CCCC1	9	6
C[C@@H]1CN([C@@H](C)CO)C(=O)c2ccccc2-c2ccccc2CO[C@H]1CN(C)C(=O)Nc1cccc(F)c1	9	15
C=CC[C@]1(C(=O)NCCCOC)COC(c2ccc(OCCCO)cc2)=N1	4	-3

Four compounds out of the list, arranged by number of heavy atoms, lowest first.
SMILES	Vaccinia inh	Vaccinia inh Venus
C=CC[C@]1(C(=O)NCCCOC)COC(c2ccc(OCCCO)cc2)=N1	4	-3
Cc1noc(C)c1NC(=O)NCC[C@H]1CC[C@@H](NC(=O)c2ccc(F)cc2)[C@@H](CO)O1	11	6
COc1cccc(-c2ccc3c(c2)O[C@H](CN(C)Cc2cccnc2)[C@H](C)CN([C@@H](C)CO)S3(=O)=O)c1	-28	-21
Cc1ccc(S(=O)(=O)Nc2ccc3c(c2)CC(=O)N([C@H](C)CO)C[C@H](C)[C@@H](CN(C)Cc2ccc(Cl)c(Cl)c2)O3)cc1	-14	-14

(next part)
SMILES	Vaccinia inh	Vaccinia inh Venus
C[C@H](CO)N1C[C@H](C)[C@@H](CN(C)S(=O)(=O)c2ccc(Cl)cc2)OCCCC[C@H](C)Oc2ccc(NC(=O)NC3CCCCC3)cc2C1=O	-18	-9
COc1ccc(CN(C)C[C@@H]2OCCCC[C@@H](C)Oc3ccc(NC(=O)Nc4ccc(C(F)(F)F)cc4)cc3C(=O)N([C@H](C)CO)C[C@H]2C)cc1	u	x
COc1ccc(CN(C)C[C@@H]2Oc3ccc(NS(=O)(=O)c4ccc(F)cc4)cc3CC(=O)N([C@H](C)CO)C[C@H]2C)cc1	-3	-5
COc1ccc(NC(=O)Nc2ccc3c(c2)[C@@H]2C[C@@H](CC(=O)NC4CCCC4)O[C@H](CO)[C@@H]2O3)cc1	2	10
C[C@H]1CN([C@@H](C)CO)C(=O)c2cc(/C=C/c3ccccc3)cnc2O[C@H]1CN(C)Cc1ccccc1F	u	x
COCC(=O)N1CC2(C1)CN(Cc1cc(F)ccc1F)[C@@H](CO)c1[nH]c3cc(OC)ccc3c12	16	9
C[C@H](CO)N1C[C@H](C)[C@H](CN(C)C(=O)Nc2ccc3c(c2)OCO3)Oc2ncc(Br)cc2C1=O	10	-1
C[C@@H](O)C#Cc1ccc2c(c1)O[C@@H](CN(C)CC1CCOCC1)[C@@H](C)CN([C@@H](C)CO)S2(=O)=O	0	4
CCC(=O)N1CCC2(CC1)CN(Cc1cccc(Cl)c1)[C@H](CO)c1c2c2ccc(OC)cc2n1C	-14	-7
O=C(N[C@@H]1CC[C@H](CCNS(=O)(=O)c2ccc(Cl)cc2)O[C@H]1CO)c1ccccn1	5	0
CC=Cc1ccc2n(c1=O)C[C@H]1[C@H](CO)[C@@H](C(=O)N[C@@H](C)c3ccccc3)N(C(=O)c3ccccn3)[C@@H]21 (mixture of isomers)	7	13
C[C@H](CO)N1C[C@H](C)[C@@H](CN(C)Cc2ccncc2)Oc2c(NC(=O)Nc3ccc(C(F)(F)F)cc3)cccc2C1=O	-4	-6
C[C@H](CO)N1C[C@H](C)[C@@H](CN(C)S(C)(=O)=O)Oc2ccc(NS(=O)(=O)c3ccc(F)cc3)cc2CC1=O	7	9
CCS(=O)(=O)N1CC(=O)N2[C@H](CO)[C@H](c3ccc(C4=CCCC4)cc3)[C@@H]2C1	3	9
COc1ccc(CN(C)C[C@H]2Oc3c(NC(=O)Nc4cccc5ccccc45)cccc3C(=O)N([C@H](C)CO)C[C@H]2C)cc1	-11	-6

Reprinted at random: 2 records from the list, in no set order.
SMILES	Vaccinia inh	Vaccinia inh Venus
C[C@H](CO)N1C[C@H](C)[C@H](CN(C)C(=O)Nc2ccc3c(c2)OCO3)Oc2ncc(Br)cc2C1=O	10	-1
C[C@H](CO)N1C[C@H](C)[C@@H](CN(C)Cc2ccncc2)Oc2c(NC(=O)Nc3ccc(C(F)(F)F)cc3)cccc2C1=O	-4	-6

(listing goes on)
SMILES	Vaccinia inh	Vaccinia inh Venus
CC=Cc1ccc2n(c1=O)C[C@@H]1[C@@H](CO)[C@H](C(=O)NCCC)N(Cc3ccccn3)[C@H]21 (mixture of isomers)	6	14
C[C@H]1CN([C@@H](C)CO)C(=O)c2cc(-c3ccc(C#N)cc3)cnc2O[C@@H]1CN(C)CC1CCCCC1	-19	-15
CN(C)C(=O)c1cccc(-c2ccc(C3[C@H]4CNC[C@@H]3N4C(=O)Nc3ccccc3F)cc2)c1 (stereo partly drawn)	1&0	1&-5
CCS(=O)(=O)Nc1ccc2c(c1)C(=O)N(C)[C@H]1CC[C@H](CC(=O)N3CCCCC3)O[C@@H]1CO2	15	8
C[C@H](CO)N1C[C@H](C)[C@@H](CN(C)S(=O)(=O)c2cccs2)Oc2ccc(NC(=O)Nc3ccc(C(F)(F)F)cc3)cc2CC1=O	-26	1
COCC#Cc1ccc([C@@H]2[C@@H](C#N)N(C(=O)Cc3ccccc3)[C@@H]2CO)cc1	11	13
C[C@H]1CN([C@@H](C)CO)C(=O)Cc2cc(NC(=O)Nc3ccc(F)cc3)ccc2O[C@H]1CN(C)Cc1ccc(-c2ccccc2)cc1	u	x
CS(=O)(=O)N1[C@H](CO)[C@@H](c2ccc(C#CC3CCCCC3)cc2)[C@@H]1C#N	9	0
C[C@H]1CN([C@@H](C)CO)C(=O)Cc2cc(NC(=O)Nc3cccc4ccccc34)ccc2O[C@@H]1CN(C)Cc1ccc(C(=O)O)cc1	13	8
C[C@@H]1CCCCO[C@H](CN(C)C(=O)Nc2cccc3ccccc23)[C@H](C)CN([C@@H](C)CO)C(=O)c2cc(NC(=O)Nc3ccc(C(F)(F)F)cc3)ccc2O1	18	10
C[C@@H]1CN([C@H](C)CO)C(=O)Cc2cc(NC(=O)NC3CCCCC3)ccc2O[C@H]1CN(C)Cc1ccc(C(F)(F)F)cc1	-26	-21
COc1ccc(NC(=O)Nc2ccc3c(c2)CC(=O)N([C@@H](C)CO)C[C@H](C)[C@H](CN(C)Cc2ccc4c(c2)OCO4)O3)cc1	-12	6
Cc1noc(C)c1NC(=O)Nc1ccc2c(c1)C(=O)N([C@@H](C)CO)C[C@H](C)[C@@H](CN(C)C(=O)Nc1ccc(C(F)(F)F)cc1)OCCCC[C@@H](C)O2	-26	-18
O=S(=O)(c1ccc(F)cc1)N1CCCCN2[C@H](C1)[C@@H](c1ccc(-c3cncnc3)cc1)[C@@H]2CO	5	3
C[C@H](O)C#Cc1ccc2c(c1)O[C@@H](CN(C)Cc1ccccn1)[C@H](C)CN([C@@H](C)CO)S2(=O)=O	3	4
COc1ccccc1-c1cn(CC[C@H]2CC[C@@H](NC(=O)Cc3ccccn3)[C@@H](CO)O2)nn1	3	1
N#C[C@H]1[C@@H](c2ccc(C3=CCCCC3)cc2)[C@H](CO)N1C(=O)c1cccc(F)c1	-31	-19
O=C(C[C@@H]1C[C@H]2c3cc(NC(=O)c4cccnc4)ccc3O[C@H]2[C@@H](CO)O1)NCc1cccnc1	16	11
CCN1[C@H](C(=O)NC2CCCC2)[C@@H](CO)[C@@H]2Cn3c(ccc(-c4ccccc4F)c3=O)[C@@H]21	3	11
C[C@@H]1CN([C@@H](C)CO)C(=O)c2cccc(NC(=O)c3ccncc3)c2O[C@H]1CN(C)C(=O)NC1CCCCC1	11	0
C[C@H](CO)N1C[C@H](C)[C@@H](CN(C)Cc2cncnc2)Oc2ncc(C#CC3(O)CCCC3)cc2C1=O	12	9
C[C@H](CO)N1C[C@H](C)[C@H](CN(C)C(=O)Nc2ccc3c(c2)OCO3)Oc2ccc(NC(=O)C3CC3)cc2CC1=O	6	6
C[C@H]1CN([C@@H](C)CO)C(=O)c2cc(C#Cc3ccccc3)cnc2O[C@@H]1CN(C)C(=O)CCN1CCCCC1	-31	-25
COCCNC(=O)C[C@H]1CC[C@H]2[C@H](COc3ccc(NS(=O)(=O)c4ccc(Cl)cc4)cc3C(=O)N2C)O1	20	20
COc1ccc2c3c(n(C)c2c1)[C@H](CO)N(CC1CC1)CC31CN(Cc2nccs2)C1	-4	-9
COc1ccc(S(=O)(=O)Nc2ccc3c(c2)[C@H]2C[C@H](CC(=O)NCC4CC4)O[C@H](CO)[C@H]2O3)cc1	-1	9
CC(C)NC(=O)Nc1ccc2c(c1)C(=O)N([C@H](C)CO)C[C@H](C)[C@H](CN(C)C)OCCCC[C@@H](C)O2	23	14
C/C=C/c1ccc([C@@H]2[C@@H](CO)N(C(C)=O)[C@@H]2CN(CC)C(=O)CN(C)C)cc1	2	-2
C[C@@H]1CN([C@@H](C)CO)C(=O)c2cc(NC(=O)Nc3ccccc3)ccc2O[C@@H](C)CCCCO[C@@H]1CN(C)Cc1ccc2c(c1)OCO2	u	x
COCCNC(=O)C[C@@H]1C[C@H]2c3cc(NC(=O)c4cccnc4)ccc3O[C@H]2[C@@H](CO)O1	7	3
COc1ccc(NC(=O)Nc2ccc3c(c2)C(=O)N([C@@H](C)CO)C[C@H](C)[C@@H](CN(C)S(=O)(=O)c2ccccc2)OCCCC[C@@H](C)O3)cc1	-2	-6
COc1ccc(CN(C)C[C@@H]2Oc3c(NC(=O)Nc4ccccc4)cccc3C(=O)N([C@H](C)CO)C[C@@H]2C)cc1	-31	-18
CO[C@@H]1CN(C)C(=O)c2cc(NC(=O)C3CCOCC3)ccc2OC[C@H](C)N(C)C[C@@H]1C	8	3
C[C@@H]1CCCCO[C@@H](CN(C)C(=O)Nc2ccc3c(c2)OCO3)[C@H](C)CN([C@@H](C)CO)C(=O)c2cc(NS(=O)(=O)c3ccc(Cl)cc3)ccc2O1	0	-5
C[C@H](CO)N1C[C@H](C)[C@H](CN(C)C(=O)Nc2ccc(F)cc2)OCCCC[C@H](C)Oc2ccc(NC(=O)C3CCCCC3)cc2C1=O	-11	-8
CCC(=O)Nc1ccc2c(c1)OC[C@@H](C)N(C(=O)c1ccccc1F)C[C@@H](C)[C@H](OC)CN(C)C2=O	-3	-1
COc1cccc(C#Cc2ccc([C@H]3[C@@H](CO)N4C(=O)CN(C(=O)c5ccccc5)C[C@H]34)cc2)c1	u	x
O=C(C1=C[C@@H](c2ccc(C(F)(F)F)cc2)C[C@@H](OCc2ccc(CO)cc2)O1)N1CCN(Cc2ccc3c(c2)OCO3)CC1	-35	-31
C[C@H](CO)N1C[C@H](C)[C@@H](CN(C)C(=O)c2ccncc2)Oc2ncc(-c3ccc(C(=O)N(C)C)cc3)cc2C1=O	14	8
COCC(=O)Nc1ccc2c(c1)C(=O)N(C)C[C@@H](OC)[C@H](C)CN(Cc1cccc(F)c1)[C@H](C)CO2	-1	0
C[C@@H]1CN([C@@H](C)CO)C(=O)c2cc(-c3cccc(F)c3)cnc2O[C@@H]1CN(C)S(C)(=O)=O	9	-3
O=C(O)C[C@H]1C[C@H]2c3cc(NC(=O)c4ccc5c(c4)OCO5)ccc3O[C@H]2[C@@H](CO)O1	3	2
O=C(C[C@@H]1CC[C@H](NC(=O)C2CCC2)[C@H](CO)O1)NCc1ccccc1Cl	4	-2

Gathered by group: those above containing two or more sulfur atoms (2)
SMILES	Vaccinia inh	Vaccinia inh Venus
C[C@H](CO)N1C[C@H](C)[C@@H](CN(C)S(C)(=O)=O)Oc2ccc(NS(=O)(=O)c3ccc(F)cc3)cc2CC1=O	7	9
C[C@H](CO)N1C[C@H](C)[C@@H](CN(C)S(=O)(=O)c2cccs2)Oc2ccc(NC(=O)Nc3ccc(C(F)(F)F)cc3)cc2CC1=O	-26	1

In a second layout: two of the compounds above.
molecule,Vaccinia inh,Vaccinia inh Venus
CCC(=O)Nc1ccc2c(c1)OC[C@@H](C)N(C(=O)c1ccccc1F)C[C@@H](C)[C@H](OC)CN(C)C2=O,-3,-1
COc1cccc(C#Cc2ccc([C@H]3[C@@H](CO)N4C(=O)CN(C(=O)c5ccccc5)C[C@H]34)cc2)c1,u,x
